Screening data as filed in PubChem BioAssay.
ClpP mod = qHTS Assay for Activators of ClpP; ATP-dependent Clp protease proteolytic subunit (Bacillus subtilis (strain 168)), P80244; purified B. subtilis ClpP, FRET peptide cleavage, 20 min; Potency, µM (highest dose often 57.5 µM), inactives show top-dose activity change, negative = active; 340,000 tested, 1.9% active; active = well fitted falling curve with a large enough effect; inconclusive = small, poorly fitted or top-dose-only effect; inactive = no such curve, though single readings can be large or run the other way; further: potency means the concentration at half of the fitted maximal effect; the source files actives as falling curves though it sought activators and does not explain the sign; nearly all actives have a fitted effect of over 65% in size; many hits overshoot -100%
Target sequence (P80244 whole entry, looked up): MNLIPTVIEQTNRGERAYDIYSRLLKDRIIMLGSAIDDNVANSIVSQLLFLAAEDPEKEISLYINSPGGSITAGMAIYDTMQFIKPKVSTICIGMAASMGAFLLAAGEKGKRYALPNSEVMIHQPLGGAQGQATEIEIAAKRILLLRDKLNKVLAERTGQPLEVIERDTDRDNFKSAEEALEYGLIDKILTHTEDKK
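Purified B. subtilis ClpP, 10 microg/mL final in Tris/HCl pH8 with KCl, BSA, glycerol and Tween-20, cleaved an Abz/nitrotyrosine-quenched decapeptide. Fluorescence (ex 320, em 430) was read at 0 and 20 min at room temperature. Delta was normalized to 5.8 microM ADEP and DMSO/no-enzyme controls.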
gsp antag = antagonists of gsp mutant (McCune-Albright syndrome); AID 624288; 340,000 tested, 0.4% active; gsp-mutant cells, cAMP HTRF, 30 min; control for the full effect not named in the record; Potency, µM (top dose mostly 76.9 µM), for the others: top-dose activity change, negative = inhibition, hits mostly inhibitors; active = falling curve of any shape with a large fitted effect; inconclusive = falling curve, mostly with a smaller effect; inactive = flat or rising curve; cell line not stated here;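 further: intracellular cAMP measured with PDE inhibitor Ro 20-1724 present during compound exposure; potency means the concentration at half of the fitted maximal effect; on the % scale 0 is the no-effect control and ±100 the full control effect; nearly all actives have a fitted effect of over 65% in size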
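HTRF cAMP read-out (cAMP-d2 plus anti-cAMP antibody-K in lysis buffer, 30 min RT). Before lysis, cells are exposed to compounds with […] for 30 min at 37C in DPBS containing Ca/Mg, BSA and Tween 20.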
TRPML1 blocker = inhibitors of human TRPML1 channel; activity change, negative = inhibition, % (concentration not given with the values); TRPML1-inducible cells, Ca2+ dye fluorescence, FDSS; hits give low values; inhibition of EC80 agonist-evoked calcium signal; 390,000 tested, 0.02% active; in the data active means activity change below about -50%; inconclusive means about -30% to -50%; inactive means above about -30%;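 further: stimulus is agonist 54-4 at its EC80 concentration; on the % scale 0 is the no-effect control and ±100 the full control effect; compound concentration not given in the record; the text of the record puts the active cut at -80%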
Target sequence (Q9GZU1 whole entry, looked up): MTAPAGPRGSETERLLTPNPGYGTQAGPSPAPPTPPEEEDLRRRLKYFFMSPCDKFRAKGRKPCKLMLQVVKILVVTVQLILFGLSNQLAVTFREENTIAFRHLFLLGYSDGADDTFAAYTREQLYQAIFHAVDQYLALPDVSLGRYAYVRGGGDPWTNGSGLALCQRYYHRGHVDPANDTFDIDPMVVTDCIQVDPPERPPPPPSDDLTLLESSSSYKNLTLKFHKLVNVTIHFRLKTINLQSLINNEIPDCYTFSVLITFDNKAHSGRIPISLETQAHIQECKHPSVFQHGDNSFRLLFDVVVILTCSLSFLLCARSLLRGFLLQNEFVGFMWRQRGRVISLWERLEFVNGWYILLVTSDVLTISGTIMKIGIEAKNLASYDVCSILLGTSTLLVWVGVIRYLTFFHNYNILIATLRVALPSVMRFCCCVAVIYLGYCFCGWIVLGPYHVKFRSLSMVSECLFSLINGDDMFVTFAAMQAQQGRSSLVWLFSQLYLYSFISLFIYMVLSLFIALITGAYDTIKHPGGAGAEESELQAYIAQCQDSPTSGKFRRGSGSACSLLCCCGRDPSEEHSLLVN
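Tet-induced TRPML1-DL cells loaded with Ca8 no-wash calcium dye were read kinetically on FDSS. Compound addition was followed by EC80 agonist 54-4 (4 uM final); inhibition was read over 110 s.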
gsp ag = gsp mutant agonism. gsp mutant cells, cAMP HTRF, 30 min; control for the full effect not named in the record. AID 624287. 340,000 tested, 0.13% active. Potency, µM (highest dose often 76.9 µM), for inactives: at the highest dose activation (cAMP increase), most hits filed as activators; active = well fitted activation curve with a large enough effect; inconclusive = small, poorly fitted or top-dose-only effect, or another doubt; inactive = no such curve, though single readings can be large or run the other way; cell line not stated here;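 further: phosphodiesterase inhibitor Ro 20-1724 added with compounds to block cAMP breakdown; potency means the concentration at half of the fitted maximal effect; nearly all actives have a fitted effect of over 60% in size; about a fifth of the inactives were tested at one dose only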
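Cells in DMEM/10% FBS with G418 were pretreated with compounds in DMSO plus […] (300 uM stock) for 30 min at 37C. cAMP was measured by HTRF (cAMP-d2 plus anti-cAMP antibody-K) after 30 min at room temperature.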
Menin MLL FP FL = displaces fluorescein MLL peptide from human menin; 290,000 tested, under 10 active; Fluorescence polarization, fluorescein-MLL peptide displacement from menin; AID 1766; FP activity change, % at 61.4 µM; inconclusive = falling polarisation curve, or a change in total fluorescence; inactive = total fluorescence flat and polarisation flat or rising; no compound was filed as active; the % refers to the polarisation; negative = inhibition;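 further: % of control where 0% means no effect; inhibitors lower the polarisation; unlabelled MLL peptide was the positive control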
TRPV1 PAM = enhances activation of the human vanilloid receptor TRPV1; Q8NER1; TRPV1-expressing cells, Fluo-8 calcium influx, capsaicin EC20 potentiation; host cell line not named in the record; control for the full effect not named in the record; potentiation, % at 8.33 µM; 320,000 tested, 0.02% active; active means potentiation above 80%; inconclusive means 30% to 80%; inactive means below 30%; further: 0% is about no effect
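TRPV1-expressing cells were cultured overnight at 35.5C and loaded with Fluo-8 calcium dye for 40 to 90 min at room temperature. After a 10 s baseline, compound was added and calcium influx was read kinetically for 3 min (ex 480/em 520 nm).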
Sfp PPTase inh = blocks B. subtilis Sfp PPTase activity | Q9F4F7 | Biochemical Sfp PPTase activity, qHTS | Potency, µM, inactives show max response, negative = inhibition, usual class: inhibitors | 310,000 tested, 3.5% active; active means well fitted inhibition curve with a large enough effect; inconclusive means small, poorly fitted or top-dose-only effect, or another doubt; inactive means no such curve, though single readings can be large or run the other way;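 further: the enzyme is Sfp with the accession as filed and its product quenches rhodamine fluorescence; potency means the concentration at half of the fitted maximal effect; 0% = enzyme reaction without inhibitor and -100% = no enzyme wells; top concentration of the series not given in the record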
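Reaction rates are the 30-min fluorescence difference (ex 525, em 598 nm) in wells containing 15 nM Sfp, 5 uM rhodamine-CoA and 12.5 uM BHQ-2-YbbR at pH 7.6 with 10 mM MgCl2.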
* marks the source's active call; other numbers are inactive results; [ ] = another dose, or the depositor's remark. Rows were taken by chance; any-hit rate near 4.9%.

What do the screens show for `C#CCOCCOCCOCCNc1nc(N2CCN(C(=O)[C@H](CCCCN)n3cc(C(N)[C@H](C)CC)nn3)CC2)nc(N2CCN(C(=O)[C@H](CCC(=O)O)n3cc(C(N)[C@H](C)CC)nn3)CC2)n1` (some centres undefined)?
ClpP mod: -3.3%; gsp antag: 8%; TRPML1 blocker: 2; gsp ag: -11%; Menin MLL FP FL: -5.1; TRPV1 PAM: 5; Sfp PPTase inh: inconclusive

How did O=C(Nc1cccnc1)c1cc(-c2ccc(Cl)c(Cl)c2)on1 do in these assays?
gsp antag: 5%; TRPML1 blocker: 22; gsp ag: 9%; Menin MLL FP FL: 1.2; TRPV1 PAM: -6; Sfp PPTase inh: -7%

Results for CCOc1ccc(C(CC(=O)O)NC(=O)COc2ccc3ccccc3c2)cc1OC (centres undefined) ?
ClpP mod: -1.0%; gsp antag: -6%; gsp ag: -1%; Menin MLL FP FL: -1.1; TRPV1 PAM: 1; Sfp PPTase inh: -2%

What do the screens show for `CCOc1cc(N2CCOCC2)c(OCC)cc1NC(=O)CSc1ncccn1`?
gsp antag: -9%; TRPML1 blocker: 3; gsp ag: -4%[15.4 µM]; Menin MLL FP FL: 0.3; TRPV1 PAM: 6; Sfp PPTase inh: 0%

What do the screens show for `O=C(NCc1ccncc1)NC12CC3CC(CC(C3)C1)C2`?
gsp antag: 9%; TRPML1 blocker: 4; gsp ag: 22%; Menin MLL FP FL: -1.5; TRPV1 PAM: 9; Sfp PPTase inh: 9%

Results for Fc1ccc(CNc2cnccn2)cc1 ?
ClpP mod: 3.2µM*; gsp antag: 12%; TRPML1 blocker: inconclusive; gsp ag: -86%[inhibitor]; Menin MLL FP FL: 2.6; TRPV1 PAM: 8; Sfp PPTase inh: 3%

How did Cc1nc2ccccc2c(=O)n1NC(=O)/C=C/c1ccccc1 do in these assays?
gsp antag: 2%; TRPML1 blocker: 2; gsp ag: 2%; Menin MLL FP FL: -1.2; TRPV1 PAM: -8; Sfp PPTase inh: -1%

How did COCCn1c(CN2CCN(C(c3ccccc3)c3ccccc3)CC2)nc2c1c(=O)n(C)c(=O)n2C do in these assays?
gsp antag: 1%; TRPML1 blocker: -4; gsp ag: -19%; Menin MLL FP FL: -15; TRPV1 PAM: inconclusive; Sfp PPTase inh: 3%

Results for Cc1cc(NC(=O)CSc2nnnn2-c2ccc(F)cc2)no1 ?
gsp antag: -4%; TRPML1 blocker: -3; gsp ag: -3%; Menin MLL FP FL: 1.8; TRPV1 PAM: 0; Sfp PPTase inh: 5%

How did COc1cccc(N2CC(C(=O)Nc3nnc(SCC(=O)NCc4ccco4)s3)CC2=O)c1 (centres undefined) do in these assays?
ClpP mod: -3.1%; gsp antag: 2%; TRPML1 blocker: -7; gsp ag: 11%; Menin MLL FP FL: -1.4; TRPV1 PAM: 3; Sfp PPTase inh: 50µM*

How did Cc1ccc(Cl)cc1NC(=O)CCNC(=O)N1CC(=O)Nc2ccccc21 do in these assays?
ClpP mod: 0.5%; gsp antag: 7%; TRPML1 blocker: 14; gsp ag: inconclusive; Menin MLL FP FL: 0.8; TRPV1 PAM: -3; Sfp PPTase inh: 9%

What do the screens show for `O=C(Cn1cnc2c(oc3ccccc32)c1=O)N1CCCC1`?
gsp antag: 22%; TRPML1 blocker: -6; gsp ag: -6%[15.4 µM]; Menin MLL FP FL: -5.7; TRPV1 PAM: 7; Sfp PPTase inh: 10%

How did Cc1ccc(/C=C/C(=O)O)cc1S(=O)(=O)NC1CCS(=O)(=O)C1 (centres undefined) do in these assays?
gsp antag: 2%; TRPML1 blocker: 8; gsp ag: 23%; Menin MLL FP FL: -0.1; TRPV1 PAM: -2; Sfp PPTase inh: 16%

How did COc1ccc(N2CCN(C(=O)CCc3nnc4ccc(N5CCOCC5)nn34)CC2)cc1 do in these assays?
ClpP mod: -4.4%; gsp antag: 2%; TRPML1 blocker: -2; gsp ag: inconclusive; Menin MLL FP FL: 3.8; TRPV1 PAM: -6; Sfp PPTase inh: 3%

Results for Cc1csc(Nc2ccccc2)[n+]1-c1ccccc1 ?
ClpP mod: -2.0%; gsp antag: -4%; TRPML1 blocker: -1; gsp ag: -4%[15.4 µM]; Menin MLL FP FL: -2.0; TRPV1 PAM: 7; Sfp PPTase inh: 6%

Results for Cc1cc(NC(=O)c2ccccc2O)nc(C)n1 ?
gsp antag: -12%; TRPML1 blocker: 7; gsp ag: 30%[15.4 µM]; Menin MLL FP FL: 1.9; TRPV1 PAM: 4; Sfp PPTase inh: 16%

What do the screens show for `CS(=O)(=O)N(CC(=O)Nc1ccccc1C(=O)N1CCCC1)c1ccccc1Br`?
ClpP mod: 0.5%; gsp antag: 6%; TRPML1 blocker: -6; gsp ag: 2%[15.4 µM]; TRPV1 PAM: -22; Sfp PPTase inh: 9%

How did N#CCCN(C(=O)CSc1nnc(-c2ccncc2)n1C1CC1)c1ccccc1 do in these assays?
ClpP mod: -2.3%; gsp antag: 9%; TRPML1 blocker: 3; gsp ag: 5%; TRPV1 PAM: -1

How did Cc1ccc(NC(=O)C2C3C=CC(O3)C2C(=O)O)cc1C (centres undefined) do in these assays?
gsp antag: -2%; TRPML1 blocker: -2; gsp ag: inconclusive; Menin MLL FP FL: -2.3; TRPV1 PAM: 26; Sfp PPTase inh: 16%

What do the screens show for `CC(=O)c1ccc(NC(=O)CSc2nc(=O)cc(N)n2-c2ccccc2)cc1`?
gsp antag: 5%; TRPML1 blocker: -1; gsp ag: -1%; Menin MLL FP FL: -0.3; TRPV1 PAM: inconclusive; Sfp PPTase inh: 11%

What do the screens show for `CN(CCc1ccccc1)C(=O)c1ccc(NC(=O)Cc2ccc(NC(=O)C3CCCN(C(=O)C4CCC4)C3)cc2)cc1` (centres undefined)?
ClpP mod: 0.7%; gsp antag: -3%; TRPML1 blocker: 9

How did Cc1ccc(S(=O)(=O)/C(C#N)=C/c2c(N3CC(C)OC(C)C3)nc3c(C)cccn3c2=O)cc1 (centres undefined) do in these assays?
ClpP mod: -3.7%; gsp antag: 11%; TRPML1 blocker: -8; gsp ag: -11%; Menin MLL FP FL: -2.0; TRPV1 PAM: 2; Sfp PPTase inh: -2%

Results for CCc1cc2c(=O)c(-c3nc(C)cs3)coc2cc1OC(C)C(=O)NCCO (centres undefined) ?
gsp antag: -7%; TRPML1 blocker: 32; gsp ag: 13%[15.4 µM]; Menin MLL FP FL: 7.7; TRPV1 PAM: 4; Sfp PPTase inh: 19%

What do the screens show for `C#CCOCCOCCOCCNc1nc(N2CCN(C(=O)C([C@@H](C)O)n3cc([C@@H](N)CCCCN)nn3)CC2)nc(N2CCN(C(=O)[C@H](CCCCN)n3cc([C@@H](N)[C@H](C)CC)nn3)CC2)n1` (some centres undefined)?
ClpP mod: -0.1%; gsp antag: 11%; TRPML1 blocker: -4

How did CC(=O)c1cccc(NC(=O)c2ccc(C)o2)c1 do in these assays?
ClpP mod: -0.3%; gsp antag: -4%; TRPML1 blocker: 13; gsp ag: -8%; Menin MLL FP FL: -0.7; TRPV1 PAM: 1; Sfp PPTase inh: 7%

What do the screens show for `O=C(NCCCN1CCN(c2ccccc2)CC1)Nc1ccccc1C(F)(F)F`?
ClpP mod: -0.9%; gsp antag: 7%; TRPML1 blocker: 11; gsp ag: inconclusive; Menin MLL FP FL: -2.2; TRPV1 PAM: 9; Sfp PPTase inh: 0%

Results for NC1=NC(=O)C(Cc2ccc(Br)cc2)S1 (centres undefined) ?
ClpP mod: -0.1%; gsp antag: -3%; TRPML1 blocker: -12; gsp ag: -30%; TRPV1 PAM: -6; Sfp PPTase inh: 4%

How did O=C(Oc1ccc(-c2nc(-c3ccccn3)no2)cc1)c1ccccc1 do in these assays?
ClpP mod: 1.0%; gsp antag: -4%; TRPML1 blocker: -8; gsp ag: 24%; Menin MLL FP FL: 0.0; TRPV1 PAM: 4; Sfp PPTase inh: 9%

How did NNC(=O)Cn1c(-c2ccccc2)cc(=O)n2ncnc12 do in these assays?
gsp antag: 4%; TRPML1 blocker: 9; gsp ag: -8%[15.4 µM]; Menin MLL FP FL: -0.6; TRPV1 PAM: 1; Sfp PPTase inh: -19%

How did CC1(C)[C@H]2CC[C@]1(C)[C@@H](OC(=O)C[N+]1(C)CCOCC1)C2 do in these assays?
gsp antag: 14%; TRPML1 blocker: 5; gsp ag: 10%[15.4 µM]; Menin MLL FP FL: -0.4; Sfp PPTase inh: 6%

Results for COc1ccc(C(CNC(=O)Cc2cccs2)N(C)C)cc1 (centres undefined) ?
gsp antag: 6%; TRPML1 blocker: 4; gsp ag: 2%; Menin MLL FP FL: -1.0; TRPV1 PAM: 20; Sfp PPTase inh: -13%

What do the screens show for `Nc1nc(-c2cccs2)c(NC(=O)c2ccccc2)s1`?
ClpP mod: 1.2%; gsp antag: -11%; TRPML1 blocker: -1; gsp ag: 0%; Menin MLL FP FL: -0.3; TRPV1 PAM: 5; Sfp PPTase inh: -29%

How did O=C(O)c1ccc(NC(=S)NC(=O)c2cccnc2)cc1 do in these assays?
gsp antag: 4%; TRPML1 blocker: 17; gsp ag: -4%; Menin MLL FP FL: 6.4; TRPV1 PAM: 16; Sfp PPTase inh: -27%

What do the screens show for `c1ccc2[nH]c(Cn3nnc4ccccc43)nc2c1`?
ClpP mod: -2.5%; gsp antag: 10%; TRPML1 blocker: -7; gsp ag: 4%; TRPV1 PAM: -12

How did CC(C)CN(C(=O)COC(=O)c1ccccc1SCC(=O)NC1CCCCCC1)C1CCS(=O)(=O)C1 (centres undefined) do in these assays?
ClpP mod: 0.7%; gsp antag: -10%; TRPML1 blocker: -12; gsp ag: -21%; Menin MLL FP FL: 5.2; TRPV1 PAM: 8; Sfp PPTase inh: 4%
